gsp antagonist – antagonists of gsp mutant (McCune-Albright syndrome); Potency, µM (top dose mostly 76.9 µM), without a hit: at the top dose activity change, negative = inhibition, hits mostly inhibitors; 340,000 tested, 0.4% active; gsp-mutant cells, cAMP HTRF, 30 min; control for the full effect not named in the record; AID 624288; active = falling curve of any shape with a large fitted effect; inconclusive = falling curve, mostly with a smaller effect; inactive = flat or rising curve; cell line not stated here;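 note: intracellular cAMP measured with PDE inhibitor Ro 20-1724 present during compound exposure; potency is the fitted concentration of half-maximal effect; % is set by controls: 0 for no effect and ±100 for the full control effect; nearly all actives have a fitted effect of over 65% in size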
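Cells in G418 medium, seeded 16-24 h, 37C; buffer exchange to DPBS + 1 mM CaCl2, 0.5 mM MgCl2, 0.05% BSA; cpds in DMSO + […] (300 uM stock), 30 min 37C; HTRF cAMP detection.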
TRPML1 blocker – human mucolipin-1 channel inhibition. activity change, negative = inhibition, % (concentration not given with the values). AID 624415. 390,000 tested, 0.02% active. Q9GZU1. TRPML1-inducible cells, Ca2+ dye fluorescence, FDSS; hits give low values; inhibition of EC80 agonist-evoked calcium signal; in the data active means activity change below about -50%; inconclusive means about -30% to -50%; inactive means above about -30%;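 note: stimulus is agonist 54-4 at its EC80 concentration; % is set by controls: 0 for no effect and ±100 for the full control effect; compound concentration not given in the record; the text of the record puts the active cut at -80%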
Target sequence (Q9GZU1 whole entry, looked up): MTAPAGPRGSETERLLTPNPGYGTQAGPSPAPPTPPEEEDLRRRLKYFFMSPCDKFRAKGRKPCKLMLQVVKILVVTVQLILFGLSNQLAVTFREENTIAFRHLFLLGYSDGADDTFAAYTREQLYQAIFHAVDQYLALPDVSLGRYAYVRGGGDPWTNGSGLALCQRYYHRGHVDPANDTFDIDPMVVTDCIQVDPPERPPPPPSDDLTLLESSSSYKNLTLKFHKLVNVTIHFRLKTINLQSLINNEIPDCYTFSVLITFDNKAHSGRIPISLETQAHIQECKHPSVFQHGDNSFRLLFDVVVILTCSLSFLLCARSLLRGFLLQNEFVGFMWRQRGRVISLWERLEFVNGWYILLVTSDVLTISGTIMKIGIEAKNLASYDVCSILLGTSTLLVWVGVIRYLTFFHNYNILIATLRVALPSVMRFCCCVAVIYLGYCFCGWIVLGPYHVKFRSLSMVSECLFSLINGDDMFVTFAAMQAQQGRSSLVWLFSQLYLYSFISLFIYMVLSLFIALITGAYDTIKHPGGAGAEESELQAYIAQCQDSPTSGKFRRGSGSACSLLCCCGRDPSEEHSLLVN
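TRPML1-DL cells, Tet-induced overnight (~16 h, 37 °C) at 1,500 cells/well, were loaded with Ca8 no-wash dye plus quencher for 45-90 min at room temperature. Compounds were pinned during FDSS kinetic reading; agonist 54-4 at EC80 (4 uM final) then added.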
gsp agonist – gsp mutant agonism; gsp mutant cells, cAMP HTRF, 30 min; control for the full effect not named in the record; Potency, µM (highest dose often 76.9 µM), for the others: top-dose activation (cAMP increase), actives largely listed as activators; 340,000 tested, 0.13% active; AID 624287; active = well fitted activation curve with a large enough effect; inconclusive = small, poorly fitted or top-dose-only effect, or another doubt; inactive = no such curve, though single readings can be large or run the other way; cell line not stated here;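 note: phosphodiesterase inhibitor Ro 20-1724 added with compounds to block cAMP breakdown; potency is the fitted concentration of half-maximal effect; nearly all actives have a fitted effect of over 60% in size; about a fifth of the inactives were tested at one dose only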
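Cells stably selected in G418 were plated at 2000/well, grown 16-24 hr, then given compounds in DMSO with the PDE inhibitor […] (300 uM solution added) for 30 min at 37C; cAMP was read by HTRF.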
Menin-MLL FL inh – menin-MLL binding inhibition, fluorescein peptide. Fluorescence polarization, fluorescein-MLL peptide displacement from menin. FP activity change, % at 61.4 µM. 290,000 tested, under 10 active. AID 1766; inconclusive = falling polarisation curve, or a change in total fluorescence; inactive = total fluorescence flat and polarisation flat or rising; no compound was filed as active; the % refers to the polarisation; negative = inhibition;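 note: % of control where 0% means no effect; inhibitors lower the polarisation; unlabelled MLL peptide was the positive control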
TRPML1 agonist – agonists of human TRPML1 channel. 410,000 tested, 0.12% active. TRPML1-expressing cells, Ca2+ dye fluorescence, FDSS; host cell line not named in the record; reference of the full effect not given here. activation, % (test concentration not listed). AID 624414. Q9GZU1; in the data active = activation above about 50%; inconclusive = about 30% to 50%; inactive = below about 30%; note: 0% is about no effect; the text of the record puts the active cut at 80%
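Kinetic FDSS Ca2+ read in Tet-induced TRPML1-DL cells (ABD Ca8 dye plus quencher, 45-90 min RT loading): baseline, then compound, then 110 s agonist window; EC80 agonist 54-4 at 4uM final added afterwards for a 110 s antagonist window.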
ClpP mod – qHTS Assay for Activators of ClpP; Potency, µM (top dose mostly 57.5 µM), inactives show at the top dose activity change, negative = active; purified B. subtilis ClpP, FRET peptide cleavage, 20 min; 340,000 tested, 1.9% active; ATP-dependent Clp protease proteolytic subunit (Bacillus subtilis (strain 168)), P80244; active = well fitted falling curve with a large enough effect; inconclusive = small, poorly fitted or top-dose-only effect; inactive = no such curve, though single readings can be large or run the other way; note: potency is the fitted concentration of half-maximal effect; the source files actives as falling curves though it sought activators and does not explain the sign; nearly all actives have a fitted effect of over 65% in size; many hits overshoot -100%
Target sequence (P80244 whole entry, looked up): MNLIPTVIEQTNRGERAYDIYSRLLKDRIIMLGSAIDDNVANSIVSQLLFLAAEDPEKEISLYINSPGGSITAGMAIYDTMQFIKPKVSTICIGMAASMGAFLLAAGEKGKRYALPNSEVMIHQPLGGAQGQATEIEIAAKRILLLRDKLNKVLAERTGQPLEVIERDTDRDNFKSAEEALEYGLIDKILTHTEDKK
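Buffer: 100 mM Tris/HCl pH8, 100 mM KCl, 0.05% low protease BSA, 2.5% glycerol, 0.01% Tween-20. ClpP 10 microg/mL final; 20 min RT; delta FRET normalized to ADEP and DMSO controls.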
* marks the source's active call; other numbers are inactive results; ? = inconclusive; nt = no result given; [ ] = remark or other dose.

Order of values: TRPML1 blocker	gsp antagonist	ClpP mod	gsp agonist	TRPML1 agonist	Menin-MLL FL inh
- CCOc1ccc(NCc2nnc(SCc3ccc(Cl)cc3)n2-c2ccccc2)cc1
→ 9.9	-12.7%	-14.3%	6.5%	3.6	-2.1
- COc1ccccc1N1CCN(C2CCCN(C(=O)c3oc(C)cc3C)C2)CC1 (stereo not drawn)
→ 3.4	-2.9%	-4.6%	18.3%[15.4 µM]	0.4	nt
- Cc1ccc(SCC(=O)c2sc(-c3ccccc3)nc2C)cc1
→ -18.4	0.8%	-2.7%	24.4%	-0.1	-0.3
- O=C(CCSCCC(=O)NCc1ccco1)NCc1ccco1
→ 7.7	-4.5%	3.9%	-37.2%	2.4	3.2
- CCCCCCSc1cccc(-c2nc3cc(C)ccn3c2NC2CCCCC2)c1
→ 24.4	3.5%	-9.0%	nt	-0.2	nt
- Cc1ccc(C(=O)OCC(=O)c2ccc(Br)cc2)cc1S(=O)(=O)N1CCOCC1
→ 28.0	-14.6%	-1.8%	?	1.5	nt
- C[C@@H](C(=O)Nc1ccccc1N1CCOCC1)N1C(=O)C2CCCCC2C1=O (stereo partly drawn)
→ -6.5	10.5%	nt	-22.0%	1.3	nt
- CC(C)NS(=O)(=O)c1ccc(CCC(=O)NCc2ccncc2)cc1
→ 15.1	9.9%	nt	-5.7%	1.7	0.9
- Cc1cc(NC(=O)CCC(=O)N(CC(=O)NCC2CCCO2)c2cccc(C)c2C)no1 (stereo not drawn)
→ 14.3	nt	nt	13.9%[15.4 µM]	0.2	7.6
- CCCCCn1c(CN2CCN(C)CC2)nc2c1c(=O)n(C)c(=O)n2C
→ 13.0	5.2%	0.4%	?	0.3	7.4
- COc1cc(OC)cc(-c2c(C#Cc3ccsc3)c3cc(-c4ccc(N(C)C)nc4)ccc3n2C)c1
→ -3.7	9.9%	4.1%	5.8%	-0.3	nt
- Cc1cc(O)ccc1N/C=C(\C#N)c1nc2ccccc2o1
→ 28.9	9.6%	17.8µM*	1.8%	2.3	-0.3
- CC(C)(C)C(=O)Nc1cccc(C(=O)OCc2cc(=O)n3nc(C4CCCCC4)sc3n2)c1
→ ?	nt	-19.4%	nt	1.8	nt
- Cc1ccc(S(=O)(=O)N2CCC(C(=O)Nc3ccc4c(c3)COC4=O)CC2)cc1
→ -4.4	-20.2%	-3.5%	-67.6%[inhibitor]	1.1	0.3
- CCOc1ccccc1NC(=O)Cn1c(=O)n(Cc2ccc(C(=O)NCCCOC)cc2)c(=O)c2ccccc21
→ -2.7	nt	1.6%	nt	-1.0	nt

Order of values: TRPML1 blocker	gsp antagonist	ClpP mod	gsp agonist	TRPML1 agonist	Menin-MLL FL inh
- COc1ccc(S(=O)(=O)N2CCCC(C(=O)NCc3cccnc3)C2)cc1 (stereo not drawn)
→ 12.8	11.9%	nt	22.9%	-0.4	1.4
- O=C(NC1CCCCC1)c1ccc(CNc2ccccc2)o1
→ 23.1	-7.9%	-3.8%	-0.8%	2.3	2.3
- CCC1c2ccc(C)n2CCN1C(=O)Nc1ccc(F)cc1 (stereo not drawn)
→ -1.5	-6.7%	-18.4%	-13.5%	0.1	?
- CC1CN(CC(=O)NCc2ccccc2)CC(C)O1 (stereo not drawn)
→ 16.5	16.0%	nt	-77.3%[inhibitor]	-0.2	5.1
- O=C(CN(Cc1ccc2c(c1)OCO2)C(=O)CNC(=O)c1ccco1)NC1CCCCC1
→ 0.3	11.1%	2.7%	-9.5%	2.8	2.0
- CCCNC(=O)C1CCN(S(=O)(=O)c2ccc3c(c2)CCCN3C(C)=O)CC1
→ ?	nt	0.4%	nt	0.5	nt
- CCOc1ccc(/C=N/OCC(=O)Nc2cc(C)on2)cc1
→ 4.0	-0.3%	nt	1.4%	0.2	1.9
- N#Cc1c(Cl)cccc1-n1ccnc1
→ 0.6	1.6%	-1.5%	-3.7%	-0.3	5.8
- CC(C)(C)c1ccc(NC(=O)CCNC(=O)c2ccco2)cc1
→ 4.9	6.7%	nt	-10.9%[15.4 µM]	1.7	0.2
- COc1ccc(-n2nnnc2SCC(=O)NCCc2ccccc2)cc1OC
→ 7.3	10.1%	0.2%	20.0%	-0.7	4.1
- COc1cccc(C(=O)N2CCN(S(=O)(=O)Cc3ccccc3)CC2)c1
→ -21.6	1.1%	0.8%	-27.7%	-0.3	2.7
- COc1cccc(CNn2c(-c3cccc(C)c3)nc3ccccc3c2=O)c1O
→ -1.9	-10.7%	0.6%	-46.2%[inhibitor]	2.0	0.1
- OCCNc1ncnc2ccc(Br)cc12
→ 8.3	4.1%	-1.5%	27.8%	-0.9	3.9
- COc1ccc2nc(SCC(=O)Nc3c(C)cccc3C)[nH]c2c1
→ -14.9	0.8%	-2.8%	0.4%	-0.3	4.8
- Cc1cc(C(=O)OCC(=O)N2CCOCC2)c(C)n1-c1ccccc1
→ -8.0	14.9%	-0.5%	-0.1%	0.0	nt

Order of values: TRPML1 blocker	gsp antagonist	ClpP mod	gsp agonist	TRPML1 agonist	Menin-MLL FL inh
- Cc1c(Cl)cccc1NC(=O)CNC(=O)Cc1n[nH]c(=O)c2ccccc12
→ -4.3	-8.1%	-0.1%	12.0%[15.4 µM]	-0.1	nt
- CCOC(=O)C1=C(C)NC(=O)NC1c1ccsc1 (stereo not drawn)
→ 24.1	4.6%	-0.8%	?	-0.5	1.8
- CSCCC(NC(=O)c1ccc(Cl)cc1Cl)C(=O)OCC(N)=O (stereo not drawn)
→ -2.1	6.4%	nt	-7.2%[15.4 µM]	-1.1	4.9
- COC(=O)c1ccc(N2CCN(c3ccccc3)CC2)c(NC(=O)C2CC2)c1
→ 21.4	-13.7%	-3.7%	-20.5%	1.8	-1.1
- N#C/C(C(N)=O)=C1/SC(Cc2ccc(F)cc2)C(=O)N1c1ccccc1 (stereo not drawn)
→ 7.9	4.3%	-1.2%	-20.0%	1.0	6.8
- CC(=O)c1c(C)[nH]c(C(=O)Nc2nc(-c3ccccc3)c(C)s2)c1C
→ -5.9	5.8%	913.1%	29.4%	-0.1	1.3
- Cc1ccc(OCCN(C)C(=O)C2CCC(=O)N(CCCN3CCOCC3)C2)cc1 (stereo not drawn)
→ 9.7	3.6%	-4.4%	9.2%	1.3	2.9
- Cc1sc2ncnc(SCC(=O)NC(C)C(C)C)c2c1C (stereo not drawn)
→ -1.6	-1.2%	-7.4%	?	1.3	-1.5
- Cc1cccc(N2CCn3c2nc2c3c(=O)n(CCc3ccccc3)c(=O)n2C)c1
→ -0.8	nt	-21.9%	nt	-0.6	nt
- C/C(N)=C(/C#N)C(=O)COC(=O)c1ccc(NC(N)=O)cc1
→ nt	6.2%	-2.3%	?	nt	1.5
- O=C(Cc1ccccc1)Nc1ccc2c(c1)OC1(CCCC1)O2
→ 9.7	-8.4%	0.7%	-25.7%	-0.3	nt
- Cc1ccc(-n2nnnc2Sc2nc([N+](=O)[O-])nn2C)cc1
→ -6.6	3.4%	-1.4%	?	-0.4	1.8
- CCOc1cccc(C(=O)Nc2ccc3oc(-c4ccc(C(C)(C)C)cc4)nc3c2)c1
→ 5.0	nt	4.7%	nt	-0.6	nt
- Cc1ccsc1C(=O)NCc1ccc(Cl)cc1
→ -1.1	4.2%	nt	-1.0%[15.4 µM]	0.8	nt
- CCN(C(=O)Nc1ccccc1)c1ccccc1
→ -20.0	8.3%	-11.4%	2.1%	0.4	2.8

Order of values: TRPML1 blocker	gsp antagonist	ClpP mod	gsp agonist	TRPML1 agonist	Menin-MLL FL inh
- CNS(=O)(=O)c1cccc(C(=O)OCC(=O)N2CCN(C(=O)c3ccco3)CC2)c1
→ -17.1	-10.4%	-2.5%	11.0%	0.2	nt
- COc1ccc(OC)c(N2C(=O)CC(Cc3ccc(C)cc3)C2=O)c1 (stereo not drawn)
→ 17.7	7.2%	-1.5%	1.3%	-1.2	3.7
- COc1ccc(NC(=O)c2cccc(-c3ccc(O)cc3)c2)cn1
→ 30.3	-23.6%	-0.9%	-1.7%	3.3	?
- COc1ccc(-c2[nH]ncc2CNC(C)CCn2cccn2)c(F)c1 (stereo not drawn)
→ 6.7	18.9%	nt	-15.5%[15.4 µM]	-0.3	-2.0
- CC(C)(C)c1nc(Sc2ncccc2[N+](=O)[O-])n[nH]1
→ 1.9	6.0%	nt	18.9%	-1.0	3.0
- O=C(NN1CCOCC1)c1ccccc1F
→ 38.3	0.9%	0.3%	?	0.5	-2.0
- N#CCCN1CCN(C2=NC(=O)C(=C3CCCCC3)S2)CC1
→ -0.1	3.5%	-1.8%	-26.3%	-0.9	4.5
- CCCCn1c(N)c(N(CCOC)C(=O)CSc2n[nH]c(-c3ccc(C)cc3)n2)c(=O)[nH]c1=O
→ 6.1	1.2%	-0.6%	-20.5%	-0.8	nt
- O=C(COC(=O)c1ccccc1-c1nc2ccccc2s1)Nc1ccccc1C(F)(F)F
→ -3.9	10.9%	nt	-2.5%[15.4 µM]	0.7	5.9
- COc1ccc(OC)c(CCNC(=O)c2sc3nc4n(c(=O)c3c2C)CCC4)c1
→ 11.8	?	-1.5%	?	-0.8	nt
- Oc1cncc(-c2cccnc2)c1
→ -7.8	-0.8%	-4.5%	-4.6%	0.2	nt
- COC(=O)[C@@H](NC(=O)Nc1cc(Cl)ccc1C)C(C)C
→ 7.2	4.3%	-2.4%	13.6%	2.6	1.6
- CC1CCCN(CC(O)COCc2ccccc2)C1 (stereo not drawn)
→ 17.6	9.0%	1.0%	-6.1%	0.6	-0.9
- OC(COCC1CC=CCC1)Cn1cnc2ccccc21 (stereo not drawn)
→ -11.8	-20.7%	-2.3%	-20.1%	0.6	-1.4
- CSc1cccc(NC(=O)NNC(=O)C2CCN(S(=O)(=O)N(C)C)CC2)c1
→ -4.5	5.7%	-0.8%	-33.5%[inhibitor]	-0.5	-0.8
- O=C(C(c1ccccc1)c1ccccc1)N(Cc1ccco1)C1CCS(=O)(=O)C1 (stereo not drawn)
→ -4.8	-17.5%	0.8%	13.3%	1.2	6.5
- COC(=O)c1nnn(-c2nonc2N)c1CSc1nc2ccccc2s1
→ 10.6	?	?	?	0.7	-3.2

Screening data deposited in PubChem by National Center for Advancing Translational Sciences (NCATS).
